Assay outcomes from PubChem.
HCMV UL50-53 inh: disrupts HCMV UL50-UL53 complex binding | inhibition, % (no concentration beside the values) | actives 0.15% (n = 190,000) | HTRF UL50-UL53 interaction, normalized percent inhibition;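 active = both replicates at 50% or more, plus weaker picks with an unusually low signal ratio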;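 also: stock transfer was 100 nL into about 20 µL; 0% = negative control wells and 100% = wells with untagged competitor protein; inactives centre near -12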
Sa growth 42C: S. aureus growth inhibition; S. aureus RN4220 growth, OD600, 20 h, 42 °C; hits give low values; relative growth, % (no concentration beside the values); actives 0.53% (n = 170,000);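 active = growth at 42 °C up to 50% and 20 or more points under that at 30 °C, or under 10% at both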;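 also: 300 nL library stock went into each well; scaled to the means of positive and negative controls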
GIV Gai3 FP: blocks GIV peptide binding to rat Galpha-i3. Galpha-i3/FITC-GIV peptide fluorescence polarization, 90 min; hits give low values; scaled: aluminum fluoride 0%, vehicle 100%. percent of control (FP), % (test concentration not listed). actives 0.42% (n = 210,000). AID 1224905;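 active = replicate mean at 85% of control or lower, very high polarization wells dropped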;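 also: wells of about 15 µL received 100 nL stock; the first replicate is given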
Target sequence (P08753 whole entry, looked up): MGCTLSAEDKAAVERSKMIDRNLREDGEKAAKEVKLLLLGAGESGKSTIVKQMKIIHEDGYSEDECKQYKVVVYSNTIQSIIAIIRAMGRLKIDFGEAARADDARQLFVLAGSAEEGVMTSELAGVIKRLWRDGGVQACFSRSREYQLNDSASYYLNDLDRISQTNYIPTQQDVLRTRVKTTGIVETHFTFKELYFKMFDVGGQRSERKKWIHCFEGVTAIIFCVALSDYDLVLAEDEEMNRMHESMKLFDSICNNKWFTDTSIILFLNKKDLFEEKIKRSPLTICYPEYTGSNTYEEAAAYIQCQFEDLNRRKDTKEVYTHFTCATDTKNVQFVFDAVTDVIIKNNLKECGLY
Sa growth 42C second temp: recorded beside Sa growth 42C, whose call it bears; relative growth, %; measured here: growth at 30 °C;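 optical density after 20 h as mean of two plates; 100% = untreated growth and lower means inhibition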
* hit, by the source's call; · = no result given; & = joins results of further samples.

Start of the listing, in advance:
SMILES,HCMV UL50-53 inh,Sa growth 42C,Sa growth 42C second temp,GIV Gai3 FP
COc1ccc(OC)c(CCNC(=O)CNC(=O)C2(C)Cn3c(cc4ccccc43)C(=O)N2C)c1 (stereo not drawn),-6,·,·,104
COc1ccc(C(=O)CSc2n[nH]c(=O)n2Cc2ccco2)cc1,-4,106,83,99
CC(=O)Nc1nc(NC(C)=O)n(-c2ccccc2)n1,·,86,94,106

Main list, repeating the preview:
SMILES,HCMV UL50-53 inh,Sa growth 42C,Sa growth 42C second temp,GIV Gai3 FP
COc1ccc(OC)c(CCNC(=O)CNC(=O)C2(C)Cn3c(cc4ccccc43)C(=O)N2C)c1 (stereo not drawn),-6,·,·,104
COc1ccc(C(=O)CSc2n[nH]c(=O)n2Cc2ccco2)cc1,-4,106,83,99
CC(=O)Nc1nc(NC(C)=O)n(-c2ccccc2)n1,·,86,94,106
CCNC(=S)N1CCN(S(=O)(=O)c2ccc(Cl)cc2)CC1,-5,86,49,100
C=CCn1c(SCC(=O)Nc2sc(C(=O)OC)c(C)c2C(=O)OC)nc2sc(C)c(C)c2c1=O,-11,·,·,102
CC(Sc1ncnc2c1cnn2-c1ccccc1)C(=O)Nc1ccnn1C(C)C (stereo not drawn),13,88,102,·
CC1(C)CC(=O)C2=C(C1)N(c1ccccc1C(F)(F)F)C(=O)CC2c1cccs1 (stereo not drawn),-4,115,86,·
CCOCCc1nn2c(=O)cc(COC(=O)c3ccccc3Br)nc2s1,·,71,77,102
CC(=O)Nc1sc2c(c1C(=O)OCC(=O)c1cc(C)n(C3CC3)c1C)CCCC2,-17,103,99,·
COc1ccc(C2CC(=O)N3CN(C4CCCCC4)CSC3=C2C#N)cc1 (stereo not drawn),-8,96,85,110
CCCCOC(=O)c1ccc(-n2nnc3c(sc4nc(C)cc(C)c43)c2=O)cc1,-10,108,95,104
CC(=O)NCCOc1cccc2cccnc12,-11,91,91,·
C/C(=N\O)C(C)(C)Nc1ccc(Cl)cc1,-31,92,86,97
Cc1nc(NCCNC(=O)c2cccs2)c2c3c(sc2n1)CCCC3,-22,84,72,103
CCc1ccc(Nc2cc(C)nc3nc(Cc4ccc(Cl)cc4)nn23)cc1,-4,84,89,110
CCC(=O)N1CCc2cc(Br)cc(S(=O)(=O)N3CCN(c4ccc(C)cc4)C(C)C3)c21 (stereo not drawn),-10,111,95,103
CN1C(=O)/C(=C2/Sc3ccc(Cl)cc3N2C)SC1=S,-19,85,77,95
O=C(c1cc2cccnc2n(Cc2ccc(F)cc2)c1=O)N1CCCC1,-19,·,·,105
CSc1nnc2c3cc(C)ccc3n(C)c2n1,-26,92,95,107
Cc1cc(C)n(CC(O)CN(c2ccccc2)S(=O)(=O)c2ccccc2)n1 (stereo not drawn),21,108,105,102
Cc1sc2nc(SCC(=O)N3CCCC3)[nH]c(=O)c2c1C,2&-4,97,86,103
CCOc1ccc(CNC(=O)c2ccc3nc(CC)c(CC)nc3c2)cc1OC,·,122,88,99
N#CCCn1ccc(NC(=O)c2ccc(Cl)cc2)n1,4,110,97,·
COc1ccc(Br)cc1CSc1nnc(-c2cccs2)n1C1CC1,-20,93,86,·
CCOc1ccc(C(=O)Nc2ccc(NC(=O)c3ccccc3)cc2)cc1Br,-29,91,88,102
CN(C)S(=O)(=O)c1cccc(C(=O)Nc2nc3ccc(F)cc3s2)c1,-4,94,94,·
COc1ccccc1C(=O)NCCC(=O)Nc1ccc(S(N)(=O)=O)cc1,-25,75,93,·
COc1ccc(N(C(=O)c2cccnc2)S(=O)(=O)c2cccc3cccnc23)cc1,-7&-3,90,95,97&104
CCOC(=O)c1c(-c2ccc(OC)c(OC)c2)csc1NC(=O)c1ccccc1F,-24,101,82,106
CC(OC(=O)c1cccc(-n2cnnn2)c1)C(=O)Nc1ccccc1F (stereo not drawn),0,87,89,·
COc1cc2nc(NC(=O)c3ccc(S(=O)(=O)N4CCc5ccccc54)cc3)sc2cc1OC,·,71,63,102
Cc1ccc(Cl)cc1Nc1nn2c(=O)c3ccc(C(=O)NC4CCC(C)CC4)cc3nc2s1 (stereo not drawn),·,99,100,105
CCc1ccc(NC(=O)CCn2cccc2)cc1,·,116,94,102
O=S(=O)(CCN1CCOCC1)c1ccc(Oc2ccc(S(=O)(=O)CCN3CCOCC3)cc2)cc1,-15,92,101,94
COC(=O)c1ccc(S(=O)(=O)Nc2ccc3c(c2)C(=O)OC3)n1C,-26,95,87,97
Cc1cccc2cc3c(nc12)SC(=NCc1ccco1)N(Cc1cccs1)C3,-14,93,80,104
CCNc1nc(C)c(C(=O)O)s1,-7,89,79,101
Cc1ccccc1OCc1nc(SCC(=O)NC2CCCC2)n[nH]1,-8,100,94,·
CS(=O)(=O)N(Cc1ccc(Cl)cc1)c1ncc(C(F)(F)F)cc1Cl,-8,108,91,106
N/C(CN1CCCC1=O)=N\OC(=O)c1ccccc1Cl,-12,91,89,97
CCOC(=O)c1c(NC(=O)c2cc(OC)c(OC)c(OC)c2)sc(C(=O)Nc2cccc(C(F)(F)F)c2)c1C,-13,·,·,101
Cc1ccc(C(=O)CCC(=O)Nc2nnc(C)s2)cc1,·,98,99,107
O=C(CSc1nccn1-c1ccc(F)cc1)Nc1nc2ccccc2s1,·,104,95,105
Cc1coc2cc3oc(=O)c(CC(=O)NCc4ccco4)c(C)c3cc12,1,105,94,109
COc1ccccc1NC(=O)CC(O)(C(F)(F)F)C(F)(F)F,-3,102,103,102
O=C(OCCN1C(=O)c2cccc3c(N4CCOCC4)ccc(c23)C1=O)c1ccccc1Cl,4,·,·,105
C=CCc1c(C)nc(SC)[nH]c1=O,-12,89,99,101
Cc1nn(-c2ccccc2)c(Cl)c1C1C(C#N)=C(N)OC2=C1C(=O)CC(C)(C)C2 (stereo not drawn),-21,·,·,98
c1ccc(CNc2nc3c(-c4ccccc4)nnn3c3ccccc23)cc1,-21&-15,111,89,108&103
CCOC(=O)C1=C(C)N=c2s/c(=C/c3cccc(OC)c3)c(=O)n2C1c1ccc(OC)c(OCC)c1 (stereo not drawn),-3,·,·,97
Cc1cc(O)c(Cc2cc(Cl)c3cccnc3c2O)c(=O)o1,-43,4.0*,2.1*,·
CC1CCC(NC(=O)C2(C)Cn3c(cc4occc43)C(=O)N2CCCOC(C)C)CC1 (stereo not drawn),-14,·,·,98
Fc1ccccc1-c1nnc2sc(-c3ccccc3)nn12,12,·,·,106
S=C(NCc1ccco1)N1CCOCC1,-15,95,95,98
Cc1cc(-n2c(C)nc3ccccc3c2=O)ccc1NC(=O)c1ccc([N+](=O)[O-])cc1,·,122,90,95
CCc1ccc(NC(=O)CSc2nc3c(sc4ccccc43)c(=O)n2CCCOC)cc1,·,91,94,102
NC(=O)c1c(-c2ccc(F)cc2)nc2n1CCS2(=O)=O,-2,·,·,99
C/C(=N\NS(=O)(=O)c1ccc(Br)cc1)c1cccs1,2,102,108,104
CCN(CC)C(=O)CSc1nc2cc3c(cc2c(=O)n1CCCCCC(=O)NCc1ccc(OC)cc1)OCO3,·,87,74,101
O=C(O)c1csc(Br)c1Br,-5,117,101,103

Other structures follow.
SMILES,HCMV UL50-53 inh,Sa growth 42C,Sa growth 42C second temp,GIV Gai3 FP
CCc1cc(-c2[nH]ncc2-c2cnn(-c3ccccc3)c2)c(O)cc1O,-15,9.5*,5.7*,·
COc1ccc(CNC(=O)c2cc(C3CC3)nc3c2c(C)nn3-c2cccc(Cl)c2C)cc1,·,98,83,96
CC(C)(C)c1ccc(C(=O)Nc2ccc(-c3nc4cc(Cl)ccc4o3)cc2)cc1,-8,109,94,103
CCn1c(=O)n(CC)c2cc(N3CCCCC3)c(NC(=O)Nc3ccccc3C(F)(F)F)cc21,·,86,82,98
O=C(N/C=C/c1ccccc1Cl)OCc1ccc(Cl)cc1,5,·,·,100
COc1cccc(CNC(=O)Cn2c(=O)c3cccn3c3ccc(F)cc32)c1OC,7,103,101,100
CCOc1ccc(CC(=O)NCCc2sc3nc(-c4ccc(F)cc4)nn3c2C)cc1,·,102,91,97&95
O=C1c2ccccc2C(=O)N1CC(c1ccco1)N1CCCCC1 (stereo not drawn),-8,100,97,·
CN(C)C(=O)/C=C/c1ccc2c(c1)OCO2,-68,93,102,104
Cc1ccc(Cl)cc1N1CCN(CCCNc2ncnc3onc(-c4ccc(Cl)cc4)c23)CC1,-41,107,91,103
COc1cc(S(=O)(=O)N2CCN(C)CC2)ccc1Cl,-31,91,77,98
C1CCN=C(NCC2(N3CCCCC3)CCCCC2)CC1,-16,126,92,·
COc1ccc(C(C)NC(=O)CN(c2cc(OC)ccc2OC)S(=O)(=O)c2ccccc2)cc1 (stereo not drawn),-7,91,82,107
Cc1ccc(NC(=O)CN2C(=O)COc3ccc(S(=O)(=O)NC4CCCC4)cc32)cc1N(C)C,·,86,87,105
CSc1nnc(C)c(=O)n1COC(=O)C1CC(=O)N(c2ccc(C)cc2)C1 (stereo not drawn),-3,111,92,108
Cc1cccc(N2CCN(c3ccc(NC(=O)c4ccccc4Cl)c(C(=O)O)c3)CC2)c1C,-40,·,·,98
Cc1ccc2ncc3c(-c4ccc(F)cc4)nn(CC(=O)Nc4ccccc4C)c3c2c1,·,79,92,96
C[C@@](Cc1ccc(O)c(O)c1)(NN)C(=O)O,-26&-18&-4,93,83,98
CCCN1C(=O)C2(c3ccccc31)c1c(oc3ccccc3c1=O)C(=O)N2CCOC (stereo not drawn),·,118,88,107
COc1ccccc1N1CCN(c2ncnc3c2cnn3-c2cccc(Cl)c2)CC1,·,120,91,102
CC(C)(C)c1csc(SCC(=O)Nc2nccs2)n1,-2,88,75,99
Cc1ccc(OCC(=O)Nc2cccc(OCc3cc(=O)n4ccccc4n3)c2)cc1C,·,96,87,104
CCOc1ccc(C(=O)N/N=C/c2c(C)[nH]c(=O)[nH]c2=O)cc1,9,96,97,105
O=C(O)Cc1c(C(=O)O)[nH]c2ccc(C(=O)O)cc12,6,90,96,102
COc1cc(-c2nc3ccccc3c(=O)n2NC(=O)c2ccccc2Cl)cc(OC)c1OC,-16,·,·,106
N#CCC(c1ccccc1)c1ccccc1,·,108,91,103
CN1c2ccccc2Oc2nnc(N3CCN(c4ccccc4)CC3)cc21,·,106,86,100
COc1cccc(NC(=O)c2ccc(-n3cnc4cccnc43)cc2)c1,-12,110,90,103
CC(C)CNC(=O)c1c2c(nn1C)-c1ccccc1SC2,-37,·,·,100
NCc1ccc(CO)cc1,-18,86,90,97
CCOc1ccc(C(=O)Nc2ccc(OCc3cc(=O)n4cccc(C)c4n3)cc2)cc1,·,77,88,99
O=C(NCc1ccc(Cl)cc1)C(=O)NCC(c1cccs1)S(=O)(=O)c1cccs1 (stereo not drawn),·,106,85,97
Cc1ccc(CNC(=O)CCS(=O)(=O)c2ccc3c(c2)oc(=O)n3C)cc1,-17,106,94,112
CC(C)CCn1c(Oc2ccccc2F)nc2c1c(=O)n(C)c(=O)n2C,·,108,91,102
COc1ccc(-c2c(C)c3ccccc3oc2=O)cc1,-2,99,88,·
Cc1c(C)c(C)c(CN2CCCCC2)c(C)c1C,-3,95,92,103
CCOC(=O)c1[nH]c2c(c1-c1ccc(OC)cc1)C(=O)CC(c1ccc(OC)c(OC)c1)C2 (stereo not drawn),-8,93,83,100
COc1ccccc1CNc1ccc(-c2nc(C(C)C)no2)cc1[N+](=O)[O-],-31,90,83,103
O=C(CCC(=O)N1CCc2cc(S(=O)(=O)N3CCCCC3)ccc21)N1CCOCC1,-18,·,·,95
COC(=O)c1sccc1NC(=O)N1CCCC1c1ccc(Cl)cc1 (stereo not drawn),6,·,·,106
N#Cc1nc(-c2ccc(Cl)cc2)oc1NCCc1ccccc1,·,134,88,93
Cc1noc(C)c1NC(=O)NCc1ccc2c(c1)OCO2,-19,115,92,103
O=C(Nc1ccccc1)N(Cc1cccs1)c1ccc(Cl)cc1,3,108,103,109
COc1ccccc1NC(=S)N(CCO)Cc1cc2cc3c(cc2[nH]c1=O)OCCO3,2,115,86,103
CC(C)Cn1c(N(C)C)nc2c1c(=O)[nH]c(=O)n2C,-3,97,93,105
Nc1nc(-c2ccc(OC(F)F)cc2)cs1,-25,98,65,105
Cc1ccc(/C=C/C(=O)N[C@@H](Cc2ccccc2)c2nc3ccccc3[nH]2)o1,-1,93,93,·
CCOC(=O)C1CCN(C(=O)CN2C(=O)C(C)(C)c3ccccc32)CC1,3,·,·,97
Cc1cc(C)n(C(C)CC(=O)NCc2ccc(Cl)cc2)n1 (stereo not drawn),·,93,87,103

Whole records, looked up by structure.
Cc1cc(C)n(C(C)CC(=O)NCc2ccc(Cl)cc2)n1 (stereo not drawn) in the list: HCMV UL50-53 inh: ·; Sa growth 42C: 93; Sa growth 42C second temp: 87; GIV Gai3 FP: 103
CC(C)Cn1c(N(C)C)nc2c1c(=O)[nH]c(=O)n2C in the list: HCMV UL50-53 inh: -3; Sa growth 42C: 97; Sa growth 42C second temp: 93; GIV Gai3 FP: 105
